# VDR inhibitor – vitamin D3 receptor (human) inhibition; P11473; VDR-SRC2-3 peptide fluorescence polarization, 2 h; Potency, µM, for inactives: max response, negative = inhibition, hits mostly inhibitors; actives 0.93% (n = 400,000); AID 504847; active = well fitted inhibition curve with a large enough effect; inconclusive = small, poorly fitted or top-dose-only effect, or another doubt; inactive = no such curve, though single readings can be large or run the other way; note: series mostly up to about 120 µM
# Target sequence (P11473 whole entry, looked up): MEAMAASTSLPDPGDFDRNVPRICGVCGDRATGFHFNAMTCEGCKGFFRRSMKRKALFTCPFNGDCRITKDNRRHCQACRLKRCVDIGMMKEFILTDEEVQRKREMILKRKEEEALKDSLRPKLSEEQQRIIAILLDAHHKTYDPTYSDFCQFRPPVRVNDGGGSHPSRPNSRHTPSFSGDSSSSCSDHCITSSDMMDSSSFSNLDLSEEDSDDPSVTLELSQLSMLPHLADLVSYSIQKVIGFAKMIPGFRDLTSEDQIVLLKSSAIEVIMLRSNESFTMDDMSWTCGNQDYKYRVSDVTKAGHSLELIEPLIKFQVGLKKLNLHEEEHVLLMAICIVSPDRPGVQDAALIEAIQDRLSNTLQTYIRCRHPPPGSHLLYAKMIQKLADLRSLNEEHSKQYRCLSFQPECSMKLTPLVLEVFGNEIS
#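 Fluorescence polarization assay measuring small-molecule disruption of VDR binding to the coregulator peptide SRC2-3. Compounds were pin-transferred (23 nl) into the reagent mix and incubated 2 h at room temperature before reading.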
# The depositor's hits bear a star; ? = inconclusive. % is set by controls: 0 for no effect and ±100 for the full control effect; potency is the fitted concentration of half-maximal effect. This is a subset (hit frequency here may not be typical).
VDR inhibitor | structure
-9% | C/C(N)=C(/C#N)C(=O)CSc1nn(-c2ccc(Cl)cc2)c(=S)s1
-5% | CNC[C@H](CC1CCCCC1)NC[C@H](Cc1ccccc1)NCCC12CC3CC(CC(C3)C1)C2
0% | CC1(C)CC(=O)c2c(nc3ccccc3c2N)C1
-11% | CCOc1cc([N+](=O)[O-])cc2c1C(=O)Nc1ccccc1O2
-16% | O=C(CCc1ccccc1)Nc1ccnn1C1CCN(Cc2ncc[nH]2)CC1
-7% | COc1ccc(NS(=O)(=O)c2ccc(NC(=O)C(CCSC)NC(N)=O)cc2)cc1 (configuration not stated)
6% | Cc1ccc(-c2nnc(Nc3ccc(C(N)=O)cc3)c3ccccc23)cc1S(=O)(=O)NCC1CCCO1 (configuration not stated)
-11% | COCCn1c(=O)c(-c2cccc(F)c2)nc2cncnc21
13% | CCOc1ccccc1Oc1ncnc2c1oc1ccccc12
19% | C=CCc1cc(C=O)cc(OC)c1OCc1ccc(Cl)cc1
-8% | O=C(CN1C(=O)C2CCCCC2C1=O)OCn1nnc2ccccc2c1=O (configuration not stated)
? | CCc1ccccc1N(CC(=O)N1CCc2ccccc2C1)S(C)(=O)=O
-22% | O=C(NCC(c1cccs1)N1CCOCC1)c1ccccc1NS(=O)(=O)c1cc([N+](=O)[O-])ccc1Cl (configuration not stated)
7% | CC(C)(C)c1ccccc1NC(=O)c1ccc2c(c1)SC1=NS(=O)(=O)CCN12
-13% | CC(=O)Nc1ccc(S(=O)(=O)N2CCN=C2SCc2ccc(C)cc2)cc1
4% | Cc1nonc1NC(=O)Nc1cccnc1
-21% | O=C(c1ccc(Cl)cc1)C1CCCN(Cc2ccc(Oc3ncccn3)cc2)C1 (configuration not stated)
-8% | COC(=O)C1=C(CS(=O)(=O)c2ccccc2)NC(=O)NC1c1ccccc1 (configuration not stated)
-19% | COc1ccc(/C=N/NC(=O)c2cccnc2)cc1
13% | O=C(CN1CCN(c2ncccn2)CC1)NCc1ccccc1
-4% | CCC1=C2CC[C@H]3C(=O)N(c4ccccc4)C(=O)[C@H]3[C@H]2[C@@]2(C)C(=NCc3ccccc3)OC(=O)N2C1=O
-18% | Cc1nc2nc(C)c(NS(=O)(=O)c3ccc(C4CCCCC4)cc3)c(=O)n2[nH]1
-14% | CSCCC(NC(=O)COc1ccccc1)C(=O)N1CCCCCC1 (configuration not stated)
9% | O=C(c1cc(C(F)(F)F)cc(C(F)(F)F)c1)N1CCC2(CC1)CCN(c1ccncc1)CC2
2% | CCc1ccc(-n2nc(CO)c(C(=O)NCCOC)n2)cc1
0% | Nc1nonc1C(=O)N1CCCCC1
-12% | COc1ccc(C(=O)C2CCCN(Cc3cn[nH]c3-c3ccccc3)C2)cc1OC (configuration not stated)
2% | Cc1ccc(Oc2ncccc2COC(=O)Nc2ccccc2C)cc1
-12% | CC1(C)OC(=O)C2(Cc3ccc(Cl)cc3N3CCCC32)C(=O)O1 (configuration not stated)
-8% | Cc1ccccc1CSCCNC(=O)COc1ccc(Cl)cc1
-3% | COc1cccc(N2C(=O)CC(N3CCN(C(=O)c4ccco4)CC3)C2=O)c1 (configuration not stated)
2% | CCc1ccc(-n2nc(C)c3c(C(=O)Nc4cccc(C(F)(F)F)c4)cc(C)nc32)cc1
? | NC(=O)c1ccc(NC(=O)CSC(=O)c2ccccc2)cc1
-2% | Oc1ccc(Cl)cc1C1=Nc2ccccc2N=C(c2ccccc2)C1
-8% | CCCSc1ncc(Cl)c(C(=O)Nc2sc3c(c2C(=O)NCC)CCCC3)n1
20% | CSc1ncc(C(=O)Nc2ccccc2F)c(-c2ccccc2)n1
4% | CCc1nnc2c3ccccc3nc(Nc3ccc(F)cc3C)n12
? | CCCCn1nc(NC(=O)CC(C)C)c2cc3cc(OC)ccc3nc21
-12% | COc1cc(OC)c(N(C)C(=O)CSc2c3c(nc4ccc(Cl)cc24)CCCC3)cc1Cl
7% | Cc1ccc(SCCNC(=O)c2ccccc2)cc1
-4% | Cc1ccccc1-c1cccc([C@@H]2C[C@H]3[C@H](CON3C)CN2C(=O)C(C)(C)C)c1
-2% | C=CCN(CC=C)CCOc1cccc(Oc2ccccc2)c1
? | COc1cccc(Cn2nnc(C(=O)Nc3cc(C)ccc3OC)c2N)c1
10% | COc1ccccc1NC(=O)Nc1ccc2c(c1)nnn2C
4% | COC(=O)c1ccc(NC(=S)N2CCC(C(N)=O)CC2)cc1
? | CCOC(=O)C1CCN(C(=O)Cn2nc(CC)n3cccc3c2=O)CC1
-9% | Cc1nc2ccc(S(=O)(=O)Nc3ccccc3C)cc2s1
-12% | Cn1c(SCC(=O)c2ccccc2)nnc1C1CC1
-26% | Cn1nc(Oc2ncc(C(F)(F)F)cc2Cl)cc1C(F)(F)F
8% | CCn1c(C)c(C)c2cc(C(=O)N3CCc4ccccc4C3)ccc21

# (more compounds)
VDR inhibitor | structure
-16% | O=c1c2c3c(sc2nc2n1CCCCC2)CCC3
-7% | CNC(=S)NNC(=O)c1sccc1OCc1ccc(C)cc1
-8% | COc1cc(SC)ccc1C(=O)OCC(=O)N1CCN(C(C)=O)CC1
2% | CC(=O)Nc1ccc2nc3c(=O)n(C)c(=O)n(C)c3nc2c1C
-5% | COc1ccccc1N1CCN(C(=O)CSc2nc(-c3ccccc3)cc(=O)[nH]2)CC1
? | O=C1/C(=C/c2cccnc2)Oc2cc(OS(=O)(=O)c3ccc(F)cc3)ccc21
-15% | CN1CCC(N(C)C(=O)COc2ccc(S(=O)(=O)N3CCOCC3)cc2)CC1
-22% | O=C(NNc1cccc(Cl)n1)Nc1cccc(C(F)(F)F)c1
7% | CC12COC3(C(=O)Nc4ccc5ccccc5c4)CC1CCC32C (configuration not stated)
3% | COc1ccc(-c2cc(C(=O)Nc3c(C)n(C)n(-c4ccccc4)c3=O)c3ccccc3n2)cc1OC

# Six compounds picked at random from the list so far, as already listed:
VDR inhibitor | structure
-8% | COc1cc(SC)ccc1C(=O)OCC(=O)N1CCN(C(C)=O)CC1
-22% | O=C(NNc1cccc(Cl)n1)Nc1cccc(C(F)(F)F)c1
-5% | COc1ccccc1N1CCN(C(=O)CSc2nc(-c3ccccc3)cc(=O)[nH]2)CC1
-7% | CNC(=S)NNC(=O)c1sccc1OCc1ccc(C)cc1
7% | CC12COC3(C(=O)Nc4ccc5ccccc5c4)CC1CCC32C (configuration not stated)
3% | COc1ccc(-c2cc(C(=O)Nc3c(C)n(C)n(-c4ccccc4)c3=O)c3ccccc3n2)cc1OC

# Later entries:
VDR inhibitor | structure
5% | Cc1nn(CC(=O)NCc2cccc(F)c2)c(=O)c2cccn12
4% | COC(=O)c1c(NC(=O)c2ccco2)sc2c1CCN(C(C)C)C2
-10% | COCCCNS(=O)(=O)c1ccc2c(c1)OCCO2
2% | CN(C)C(=O)c1ccc(Nc2nnc(-c3ccc(O)cc3)c3ccccc23)cc1
-10% | C/C(=N/NC(=O)c1ccoc1C)c1ccc(N2CCOCC2)cc1
9% | O=C(NC(Cc1ccccc1)C(=O)O)c1ccc(S(=O)(=O)N2CCCC2)cc1 (configuration not stated)
1% | C=CCn1c(-c2ccc(C)cc2)nc2ccccc21
-20% | CC(=O)N(C)Cc1ccc(C(=O)CSc2nnc(C3CC3)n2C2CC2)cc1
3% | CCN1CCc2nc(NC(=O)Cc3ccc4c(c3)OCCO4)sc2C1
-15% | COc1ccccc1CCNC(=O)c1ccc(NC(=O)CC2SC(N3CCCC3)=NC2=O)cc1 (configuration not stated)

# Five entries from above, in CSV form.
SMILES,VDR inhibitor
COC(=O)c1c(NC(=O)c2ccco2)sc2c1CCN(C(C)C)C2,4%
COCCCNS(=O)(=O)c1ccc2c(c1)OCCO2,-10%
CN(C)C(=O)c1ccc(Nc2nnc(-c3ccc(O)cc3)c3ccccc23)cc1,2%
C/C(=N/NC(=O)c1ccoc1C)c1ccc(N2CCOCC2)cc1,-10%
O=C(NC(Cc1ccccc1)C(=O)O)c1ccc(S(=O)(=O)N2CCCC2)cc1 (configuration not stated),9%

# Sorted by value in VDR inhibitor (low to high): 7 of the compounds above.
VDR inhibitor | structure
-15% | COc1ccccc1CCNC(=O)c1ccc(NC(=O)CC2SC(N3CCCC3)=NC2=O)cc1 (configuration not stated)
1% | C=CCn1c(-c2ccc(C)cc2)nc2ccccc21
2% | CN(C)C(=O)c1ccc(Nc2nnc(-c3ccc(O)cc3)c3ccccc23)cc1
3% | CCN1CCc2nc(NC(=O)Cc3ccc4c(c3)OCCO4)sc2C1
4% | COC(=O)c1c(NC(=O)c2ccco2)sc2c1CCN(C(C)C)C2
5% | Cc1nn(CC(=O)NCc2cccc(F)c2)c(=O)c2cccn12
9% | O=C(NC(Cc1ccccc1)C(=O)O)c1ccc(S(=O)(=O)N2CCCC2)cc1 (configuration not stated)

# (listing goes on)
VDR inhibitor | structure
-10% | CCCCn1c(SCC(=O)NCCOC)nc2ccc(N3CCOCC3)cc2c1=O
12% | COc1cccc(C2CC(C(F)(F)F)n3ncc(C(=O)O)c3N2)c1 (configuration not stated)
6% | CCOCCCNC(=O)c1cc2c(=O)[nH]c3ccccc3c2s1
22% | Cc1cc(C)n(CC(O)COc2cccc(OCC(O)Cn3nc(C)cc3C)c2)n1 (configuration not stated)
-6% | O=C(NCc1cccnc1)Nc1ccc(Br)cc1
5% | CCOC(=O)c1c(O)c(Cl)c(C)[nH]c1=O
-8% | CC(Sc1ccc(Cl)cc1)C(=O)Nc1ccccc1-c1ccccc1 (configuration not stated)
-10% | COc1ccc(/C=C/C(=O)NCc2ccccn2)cc1
0% | O=C(CN1C2=NCCN2c2ccccc21)C12CC3CC(CC(C3)C1)C2
-5% | COc1ccc(C(=O)COC(=O)CCNS(=O)(=O)c2ccccc2)c(OC)c1
-17% | CNc1nnc(-c2ccc(OC)cc2)s1
0% | Cc1ccc(N2C(=O)c3ccc(N)cc3C2=O)cc1
12% | CC(=O)Nc1ccc(C2(O)COc3ccccc3O2)cc1 (configuration not stated)
-4% | CCOC(=O)c1c(NC(=O)Cn2nc(C(=O)O)c3ccccc3c2=O)sc(CC)c1C
-19% | COc1cc(-c2nc(C(=O)NC3CCN(Cc4ccccc4)CC3)cc3c2[nH]c2ccccc23)cc(OC)c1OC
0% | CC(Nc1oc(-c2ccco2)nc1C#N)c1ccccc1 (configuration not stated)
0% | NC(=O)C1(N2CCCCC2)CCN(CC(=O)Nc2cc(Cl)ccc2Cl)CC1
-6% | Cc1cc(C)c2c(=O)cc(C(=O)Nc3sc4c(c3C(=O)NCc3ccco3)CCCC4)oc2c1
-6% | CCN(CC(=O)NCc1cccs1)C(=O)/C=C/c1cccc(Cl)c1Cl
-8% | O=C(COC(=O)c1cccnc1Cl)NCc1cccs1
-2% | CCc1ccc2c(c1)c(=O)c(S(=O)(=O)c1ccc(Cl)cc1)cn2CC
-11% | COc1ccccc1N1CCN(c2ncnc3nc[nH]c23)CC1
-5% | O=C(c1cc(Cl)ccc1Cl)N1CCN(c2ccccn2)CC1
-4% | Cc1ccc(-n2nc3ccc(N)cc3n2)c(C)c1
-8% | CCOc1cccc(C(=O)Nc2ccc(N3CCCC3)cc2)c1
? | CCCOc1ccc(N2C(=O)CC(SCCc3nc4ccccc4[nH]3)C2=O)cc1 (configuration not stated)
-2% | O=C(c1ccc(CS(=O)c2ccccc2Cl)o1)N1CCN(c2ccccc2)CC1 (configuration not stated)
-3% | O=C(Nc1cccnc1)c1cn(-c2ccccc2)nc1-c1cccs1
4% | CCCCNC(=S)N(C)/N=C/c1ccccc1F
-24% | CC1Cc2ccccc2N1C(=O)COC(=O)c1ccccc1NCCO (configuration not stated)
0% | C/C(=N\NC(=O)CSc1nnc(C)s1)c1ccc(O)cc1
2% | CCOCCCNC(=O)C1(O)c2ccccc2NC(=O)N1c1ccc(Cl)cc1 (configuration not stated)
-11% | Cn1c(CN2CCCC(C(=O)c3ccc4c(c3)OCO4)C2)nc2ccccc21 (configuration not stated)
5% | CN(c1ccc(C(=O)Nc2ccc(S(=O)(=O)N3CCCC3)cc2)cc1)S(C)(=O)=O
6% | CCC(C)C(NC(=O)C1CCC(C)CC1)C(=O)Nc1cc(OC)ccc1OC (configuration not stated)
9% | Cc1c(C(N)=O)c(N)c(C(=O)c2ccccc2)n1-c1ccccc1
-5% | CC1(c2cccs2)CC(c2cccs2)=C(C#N)C(=O)N1 (configuration not stated)
-8% | O=C(CN1CCC(NC(=O)c2cccc(F)c2)CC1)NCc1ccccc1F
13% | O=C(/C=C/c1ccc(OC(F)F)cc1)OCC(=O)N1CCc2ccccc21
15% | Cc1ccc2c(c1)c(=O)c(C(=O)c1ccncc1)cn2CC(=O)Nc1c(C)cccc1C
-11% | Cc1ccccc1Cn1nc(C)c(NC(=O)/C=C/c2cnn(C)c2C)c1C
6% | CCOc1cc(/C=N/NC(=O)COc2ccc(C)cc2)ccc1OC(=O)c1cccs1
-10% | COc1cccc(NC(=O)CCS(=O)(=O)c2ccc(Br)cc2)c1
6% | Cc1ccc(-c2nnc(SCCC(=O)N3CCOCC3)o2)cc1
-4% | CCN(CC)S(=O)(=O)c1ccc(NC2c3ncccc3C(=O)N2Cc2ccccc2)cc1 (configuration not stated)
-6% | CCN(C(=O)CSc1ncnc2sccc12)c1c(N)n(Cc2ccccc2)c(=O)[nH]c1=O
-2% | Cc1cccc(NC(=O)c2cccc(S(=O)(=O)NCc3ccccc3)c2)n1
-4% | O=c1c(-c2ccc(Cl)cc2)c(C(F)(F)F)oc2c(CN3CCCCC3)c(O)ccc12
15% | CCS(=O)(=O)c1ccc(C(=O)Nc2ccccc2)c(Cl)c1Cl
3% | O=C1CC(c2ccccc2)Sc2ccccc2N1 (configuration not stated)

# (next part)
VDR inhibitor | structure
-5% | O=C(Cn1c2ncccc2c(=O)n1-c1ccccc1)Nc1cccc(C(F)(F)F)c1
-12% | CCCn1c(CCC(=O)Nc2ccc(C)c(Cl)c2)nc2cccnc21
-16% | Cc1ccc(-c2noc(-c3ccccc3C(=O)N3CCOCC3)n2)cc1
-1% | COc1ccc(C2C(C(=O)Nc3ccccc3OC)=C(C)Nc3nnnn32)c(OC)c1 (configuration not stated)
-11% | COCCNc1nnc(SCC(=O)N(C)c2c(N)n(Cc3ccccc3)c(=O)[nH]c2=O)s1
-13% | OCCC1CN(Cc2cccn2-c2ncccn2)CCN1C1CCCC1 (configuration not stated)
-11% | NNC(=S)NC1CC2CC1C1C=CCC21 (configuration not stated)

# High-throughput results (PubChem)
